Sfp inh: inhibitors of Bacillus subtilis Sfp phosphopantetheinyl transferase | Biochemical Sfp PPTase activity, qHTS | Q9F4F7 | Potency, µM, for inactives: max response, negative = inhibition, usual class: inhibitors | 3.5% of 310,000 active; active means well fitted inhibition curve with a large enough effect; inconclusive means small, poorly fitted or top-dose-only effect, or another doubt; inactive means no such curve, though single readings can be large or run the other way;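 further: the enzyme is Sfp with the accession as filed and its product quenches rhodamine fluorescence; potency means the concentration at half of the fitted maximal effect; 0% = enzyme reaction without inhibitor and -100% = no enzyme wells; top concentration of the series not given in the record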
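Buffer: 50 mM Hepes-Na pH 7.6, 10 mM MgCl2, 0.01% Nonidet P-40, 0.01% BSA. Enzyme 15 nM, pre-exposed to compound 15 min; substrates then added and fluorescence change tracked over 30 min.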
TRPV1 PAM: potentiators of human vanilloid receptor 1 (TRPV1). potentiation, % at 8.33 µM. TRPV1-expressing cells, Fluo-8 calcium influx, capsaicin EC20 potentiation; host cell line not named in the record; control for the full effect not named in the record. Q8NER1. 0.02% of 320,000 active; active means potentiation above 80%; inconclusive means 30% to 80%; inactive means below 30%; further: 0% is about no effect
Target sequence (Q8NER1 whole entry, looked up): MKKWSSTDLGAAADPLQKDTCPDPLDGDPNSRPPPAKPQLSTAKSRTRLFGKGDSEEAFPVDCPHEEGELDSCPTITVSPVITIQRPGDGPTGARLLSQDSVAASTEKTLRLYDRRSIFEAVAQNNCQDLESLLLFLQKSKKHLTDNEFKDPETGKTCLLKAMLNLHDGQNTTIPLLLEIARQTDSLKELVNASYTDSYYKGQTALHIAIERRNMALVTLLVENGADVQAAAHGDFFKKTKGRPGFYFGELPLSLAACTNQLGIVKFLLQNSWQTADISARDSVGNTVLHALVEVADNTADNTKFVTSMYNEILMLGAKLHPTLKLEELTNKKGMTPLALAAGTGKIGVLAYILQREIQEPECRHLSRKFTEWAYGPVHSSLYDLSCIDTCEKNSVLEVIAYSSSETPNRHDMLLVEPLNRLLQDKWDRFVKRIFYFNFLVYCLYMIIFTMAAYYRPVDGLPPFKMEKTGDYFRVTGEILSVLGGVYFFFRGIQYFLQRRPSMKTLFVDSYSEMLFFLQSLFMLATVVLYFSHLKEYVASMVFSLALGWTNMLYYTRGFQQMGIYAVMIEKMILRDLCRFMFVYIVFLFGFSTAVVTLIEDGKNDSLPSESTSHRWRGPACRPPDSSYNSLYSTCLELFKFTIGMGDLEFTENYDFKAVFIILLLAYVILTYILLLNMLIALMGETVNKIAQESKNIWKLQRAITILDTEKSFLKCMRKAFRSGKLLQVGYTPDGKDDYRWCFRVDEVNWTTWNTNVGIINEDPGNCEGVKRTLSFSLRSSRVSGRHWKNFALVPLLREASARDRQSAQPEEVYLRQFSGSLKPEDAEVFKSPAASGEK
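Cells expressing TRPV1 were dye-loaded with Fluo-8 and read kinetically: 10 s baseline, 3 min after compound (agonist portion), then 2 min after EC20 capsaicin (allosteric enhancer portion). Calcium-bound dye fluorescence at 480/520 nm.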
Menin-MLL FL inh: menin-MLL binding inhibition, fluorescein peptide | 290,000 tested, under 10 active | FP activity change, % at 61.4 µM | AID 1766 | Fluorescence polarization, fluorescein-MLL peptide displacement from menin; inconclusive = falling polarisation curve, or a change in total fluorescence; inactive = total fluorescence flat and polarisation flat or rising; no compound was filed as active; the % refers to the polarisation; negative = inhibition;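 further: % of control where 0% means no effect; inhibitors lower the polarisation; unlabelled MLL peptide was the positive control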
gsp agonist: agonists of gsp mutant (McCune-Albright syndrome). Potency, µM (highest dose often 76.9 µM), for inactives: at the top dose activation (cAMP increase), most hits filed as activators. 0.13% of 340,000 active. gsp mutant cells, cAMP HTRF, 30 min; control for the full effect not named in the record. AID 624287; active = well fitted activation curve with a large enough effect; inconclusive = small, poorly fitted or top-dose-only effect, or another doubt; inactive = no such curve, though single readings can be large or run the other way; cell line not stated here;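 further: phosphodiesterase inhibitor Ro 20-1724 added with compounds to block cAMP breakdown; potency means the concentration at half of the fitted maximal effect; nearly all actives have a fitted effect of over 60% in size; about a fifth of the inactives were tested at one dose only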
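Cells stably selected in G418 were plated at 2000/well, grown 16-24 hr, then given compounds in DMSO with the PDE inhibitor […] (300 uM solution added) for 30 min at 37C; cAMP was read by HTRF.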
gsp antag: antagonizes gsp, the McCune-Albright syndrome mutation; 0.4% of 340,000 active; Potency, µM (highest dose often 76.9 µM), without a hit: at the top dose activity change, negative = inhibition, actives largely listed as inhibitors; gsp-mutant cells, cAMP HTRF, 30 min; control for the full effect not named in the record; active = falling curve of any shape with a large fitted effect; inconclusive = falling curve, mostly with a smaller effect; inactive = flat or rising curve; cell line not stated here;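 further: intracellular cAMP measured with PDE inhibitor Ro 20-1724 present during compound exposure; potency means the concentration at half of the fitted maximal effect; on the % scale 0 is the no-effect control and ±100 the full control effect; nearly all actives have a fitted effect of over 65% in size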
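G418-selected cells were plated in DMEM/10% FBS for 16-24 h at 37C, then treated with compounds plus the PDE inhibitor […] (300 uM solution added) for 30 min at 37C. Intracellular cAMP was measured by HTRF after 30 min lysis at room temperature.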
CtBP-E1A inh: inhibitors of CtBP/E1A interaction; activity change, % (no concentration beside the values); 0.49% of 340,000 active; AlphaScreen GST-E1A/His-CtBP binding, 1536-well; hits give low values; control for the full effect not named in the record; in the data active means activity change below about -65%; inconclusive means about -30% to -65%; inactive means above about -30%; further: on the % scale 0 is the no-effect control and ±100 the full control effect; compound concentration not given in the record
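AlphaScreen with 125 nM GST-E1A and 125 nM His-CtBP (5X stocks) in Tris pH 8.0, 300 mM NaCl, BSA, Tween 20, TCEP. Compounds preincubated 2 h at 37 deg C, then glutathione donor/nickel acceptor beads added for 1 h at 37 deg C in dark.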
ClpP mod: qHTS Assay for Activators of ClpP; AID 651965, 2013; 1.9% of 340,000 active; purified B. subtilis ClpP, FRET peptide cleavage, 20 min; Potency, µM (doses to about 57.5 µM), for the others: at the highest dose activity change, negative = active; active = well fitted falling curve with a large enough effect; inconclusive = small, poorly fitted or top-dose-only effect; inactive = no such curve, though single readings can be large or run the other way; further: potency means the concentration at half of the fitted maximal effect; the source files actives as falling curves though it sought activators and does not explain the sign; nearly all actives have a fitted effect of over 65% in size; many hits overshoot -100%
Target sequence (P80244 whole entry, looked up): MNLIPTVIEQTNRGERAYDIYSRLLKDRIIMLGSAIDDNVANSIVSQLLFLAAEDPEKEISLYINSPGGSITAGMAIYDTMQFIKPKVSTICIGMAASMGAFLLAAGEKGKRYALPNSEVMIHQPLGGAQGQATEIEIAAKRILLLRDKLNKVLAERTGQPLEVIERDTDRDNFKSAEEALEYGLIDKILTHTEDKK
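Buffer: 100 mM Tris/HCl pH8, 100 mM KCl, 0.05% low protease BSA, 2.5% glycerol, 0.01% Tween-20. ClpP 10 microg/mL final; 20 min RT; delta FRET normalized to ADEP and DMSO controls.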
* marks the source's active call; other numbers are inactive results; ? = inconclusive; / = no result given; & = joins results of further samples; [ ] = another dose, or the depositor's remark.

SMILES	Sfp inh	TRPV1 PAM	Menin-MLL FL inh	gsp agonist	gsp antag	CtBP-E1A inh	ClpP mod
COc1ccc(CN(C(=O)CO/N=C/c2ccccc2)c2ccccc2C(=O)O)cc1	-27%	29	3.4	15%	-6%	-3	/
O=C(NCC1CC1)C1CCCN(S(=O)(=O)c2ccc(-n3cnnn3)cc2)C1 (stereo not given)	-4%	4	2.0	-36%	-3%	3	-1.9%
Fc1cccc(Cl)c1-c1nnc2ccc(N3CCOCC3)nn12	-3%	-2	0.9	-14%	7%	5	-1.9%
CCS(=O)(=O)c1ccc2oc(Nc3cccc(OC)c3)nc2c1	-3%	?	1.5	19%	1%	0	/
COc1ccc(S(=O)(=O)Nc2ccc(Oc3ccsc3C(=O)O)cc2)cc1	-1%	?	4.9	-5%	17%	/	2.1%
CCSc1nnc([C@@H]2CCCN2C(=O)OC(C)(C)C)o1	-6%	5	5.0	-51%[inhibitor]	8%	12	-1.8%
COc1ccccc1C(=O)Nc1ccnn1C1CCN(Cc2cnc(N(C)C)s2)CC1	10%	2	/	-16%	-17%	0	-0.8%
CC(=O)NC12CC3CC(C1)CC(C(=O)N1CCN(S(=O)(=O)c4ccc([N+](=O)[O-])cc4)CC1)(C3)C2	/	/	/	27%	-1%	-3	0.8%
CC(=O)Nc1ccc(O)c(-c2nc3ccccc3s2)c1	-4%	-13	-2.6	?	0%	/	-17%
Cc1cccc(N(CC(=O)N2CCOCC2)S(C)(=O)=O)c1	4%	5	5.0	0%	14%	4	-2.0%
COC(=O)c1c(O)c2c([nH]c1=O)CCCC2	9%	4	1.4	?	1%	-1	-1.0%
CC(C)CCOC(=O)/C(=C/c1ccco1)NC(=O)/C=C/c1ccccc1	12%	2	12	10%	4%	6	2.0%
COc1ccc(C(=O)OC(C)C(=O)Nc2cc(C(F)(F)F)ccc2Cl)c(OC)c1OC (stereo not given)	3%	21	-0.3	2%	-18%	21	-1.8%
Cc1ccc(N=C2NC(=O)C(CC(=O)O)S2)cc1 (stereo not given)	14%	-3	2.5	17%	3%	3	-2.3%
CC(C)c1ccc(C(=O)OC2CCOC2=O)cc1 (stereo not given)	9%	1	-6.5	10%	11%	-1	/
CN(C)C(=O)c1ccc(NC(=O)COC(=O)Cn2cc(C(F)(F)F)ccc2=O)cc1	/	5	/	-35%[inhibitor]	16%	7	-1.9%
COc1ccccc1-n1cnnc1SC(C)C(=O)NCC1CCCO1 (stereo not given)	/	-4	/	6%	12%	/	1.5%
c1ccc(Nc2ncnc3c2oc2ccccc23)cc1	79µM*	-5	15	12%	-17%	-3	152%
O=C(CNC(=O)c1cccs1)N/N=C/c1ccc(Cl)cc1	0%	-10	-4.9	4%[15.4 µM]	/	-14	/
Cc1cccc(NC(=O)[C@H](NC(=O)[C@@H]2Cc3ccccc3CN2)c2ccccc2)c1	-11%	-5	/	-22%	3%	/	0.8%
COc1ccccc1C(=O)COC(=O)/C=C/c1ccccc1	6%	5	/	?	-5%	8	-6.5%
COc1ccccc1OCC(=O)Nc1cc(Cl)ccc1Oc1ccccc1	4%	14	2.3	-29%	-10%	-15	-2.0%
Cc1cccc(N2CC(C(=O)OCc3ccc([N+](=O)[O-])cc3)CC2=O)c1 (stereo not given)	18%	-18	1.8	31%[15.4 µM]	-10%	-2	/
Cc1ccc(C)c(OCC(=O)Nc2ccc(S(=O)(=O)Nc3ccccn3)cc2)c1	-3%	?	1.2	-48%[inhibitor]	-10%	-8	-25%
CCOC(=O)c1ccc(NC(=O)N2CCN(CCc3ccccc3)CC2)cc1	-1%	-20	-1.4	11%	-6%	-1	-2.6%
SMILES	Sfp inh	TRPV1 PAM	Menin-MLL FL inh	gsp agonist	gsp antag	CtBP-E1A inh	ClpP mod
O=C(NCc1ccc(F)cc1)N1CCN(C(=O)c2ccccc2)CC1	/	8	/	-1%	3%	/	-0.4%
CCOC(=O)C1CCCN(CC(=O)/C=C2/N(C)c3ccccc3C2(C)C)C1 (stereo not given)	1%	28	5.0	5%	-10%	-3	-14%
CC(C)OC(=O)C1Cc2ccccc2CN1S(=O)(=O)c1cccs1 (stereo not given)	7%	2	2.2	?	-10%	12	/
O=C(CCCO)NNc1c2ccccc2nc2ccccc12	13%	-1	0.1	-3%[15.4 µM]	?	-1	/
CCn1c(=O)cc(SCC(=O)N2CCN(C3CCCCC3)CC2)c2ccccc21	6%	6	-1.4	?	-12%	0	-9.7%
COc1ccc(Br)cc1C1CC(=O)C(C)C(c2cc(Br)ccc2OC)N1 (stereo not given)	-1%	7	-3.7	13%[15.4 µM]	-2%	-26	-11%
CCC(=O)N(Cc1c(C)nn(-c2ccccc2)c1Cl)c1ccc(Cl)cc1	-8%	-10	-1.1	-6%	-22%	-4	0.6%
O=C(CCc1nnc2ccc(NCc3ccco3)nn12)N1CCCCC1	4%	8	/	65%	-4%	4	-0.5%
CNC(=S)N(CCc1c(C)[nH]c2ccc(C)cc12)Cc1ccco1	-5%	19	-1.3	18%	-27%	-12	-1.3%
CCOc1ccc(-c2c(C(=O)N/N=C/c3ccc(OC(C)C)cc3)nnn2-c2nonc2N)cc1	6%	-1	-0.5	-9%	-10%	-3	?
CCc1cc(=O)oc2c3c(cc(OCC(=O)NC4CC4)c12)OC(C)(C)CC3	-4%	0	-2.0	/	-1%	-5	5.4%
O=S(=O)(c1ccc(Br)cc1)N1CCN(c2cc(-c3ccccc3)nc3ncnn23)CC1	3%	2	7.1	4%	-14%	-1	?
N#Cc1ccc(-c2cccnc2)nc1SCC(=O)c1ccccc1	-2%	2	?	-3%[15.4 µM]	-17%	10	/
O=C(CSc1nnnn1-c1ccc2c(c1)CCC2)Nc1ccc2c(c1)OCCO2	-5%	0	5.2	-19%	?	-3	-2.1%
N/C(=N\c1nc2c(c(=O)[nH]1)CCC2)Nc1cccc2ccccc12	8%	-2	6.4	-11%	6%	-1	-0.7%
NC(=O)CSCc1ccc(Br)cc1	14%	-2	2.2	1%	7%	1	-0.3%
Cc1cc(S(=O)(=O)Nc2ccc(C(=O)NCC3(N4CCCCC4)CCCCC3)cc2)ccc1F	/	5	/	18%[15.4 µM]	0%	-3	/
Cc1sc2c(c1C)C(O)=C(C(=O)Nc1ccccc1)S(=O)(=O)N2C	?	6	19	-3%[15.4 µM]	-14%	-8	/
COc1ccc(S(=O)(=O)NNC(=O)c2ccccc2-n2cccc2)cc1	13%	3	-2.8	-1%[15.4 µM]	7%	/	/
CCN(CC)CCN(C(=O)c1cc(Cl)sc1Cl)c1nc2cc3c(cc2s1)OCO3	-16%	6	1.4	-3%	-8%	-4	-3.8%
Cc1cc(C(=O)Nc2ccccc2N2CCOCC2)ccc1[N+](=O)[O-]	5%	-5	1.2	-14%	-9%	4	-4.4%
CCCCCCNC(=O)O[C@H]1CN(C(=O)OC(C)C)N(C(=O)OC(C)C)[C@@H]2CN(S(=O)(=O)c3ccc(C)cc3)C[C@]12O	/	/	/	0%	/	7	2.0%
O=C(NCc1ccccc1)C12CN(Cc3ccccc3)CC1C(c1ccc([N+](=O)[O-])cc1)=NO2 (stereo not given)	3%	5	4.0	/	-6%	-19	-1.2%
CCCCOCCCN1CC(=O)N2[C@@H](Cc3c([nH]c4ccccc34)C2(C)C)C1=O	5%	-17	-3.3	-9%[15.4 µM]	-11%	10	-0.7%
Cc1c(C(=O)N2CCN(S(=O)(=O)c3cc(F)ccc3F)CC2)oc2ccccc12	/	-16	/	?	-17%	0	-3.5%
SMILES	Sfp inh	TRPV1 PAM	Menin-MLL FL inh	gsp agonist	gsp antag	CtBP-E1A inh	ClpP mod
CCc1ccc(S(=O)(=O)ON2C(=O)c3ccccc3C2=O)cc1	18µM*	-2	-0.8	-9%[15.4 µM]	/	-16	/
Cc1nn(C(C)(C)C)c(NC(=O)c2ccccc2)c1C#N	8%	10	0.4	21%	5%	/	2.0%
CCC(CC)NC(=O)CC(c1ccccc1)c1ccccc1	18%	0	-0.7	37%	1%	-13	/
CC(C)(C)[C@H]1CCC(=O)N([C@H](CSc2ccccc2)Cc2ccccc2)CC1	-1%	-7	0.3	/	-8%	1	0.7%&2.4%
Cc1nn(C)c(C)c1CN(Cc1nc(-c2cc(F)ccc2F)oc1C)C1CC1	4%	-35	-3.5	6%[15.4 µM]	-9%	-24	/
Cc1ccccc1NC(=O)NC1(C(=O)N2CCC(O)CC2)CCCCC1	11%	-5	-15	3%	6%	4	/
Cc1ccc(S(=O)(=O)N(C)C)cc1NC(=S)Nc1cccc2ccccc12	-26%	6	2.5	-28%	4%	-8	3.7%
O=C(CCOc1ccccc1)Nc1ccnn1C1CCN(CCc2ccccc2)CC1	2%	-4	-2.4	?	5%	-14	-0.8%
CCN=c1scc(C)n1/N=C/c1ccsc1	-3%	-6	-5.6	4%[15.4 µM]	5%	-5	0.5%
COc1ccc(-c2nc3c(c(SCC(=O)N4CCCC4)n2)COC(C)(C)C3)cc1	/	/	/	6%	4%	4	-0.2%
Cc1cc(C)c(NC(=O)CNC(=O)c2ccc3ncsc3c2)c(C)c1	/	/	/	-26%	-1%	/	-0.4%
CCN(C(=O)COC(=O)c1cc(-c2ccccc2)nc2c1c(C)nn2-c1ccc(C)cc1)C1CCS(=O)(=O)C1 (stereo not given)	-13%	-5	3.7	?	9%	4	/
CCCCN(C(=O)c1ccc(C)o1)c1c(N)n(CC(C)C)c(=O)[nH]c1=O	/	-15	/	14%	8%	3	-0.1%
CCc1noc(C)c1C(=O)N1CCN(c2cccc(Cl)c2)CC1	/	/	/	?	/	4	0.0%
N#C/C(=C/c1cn(CC(=O)O)c2ccccc12)c1ccc(F)cc1	2%	2	1.2	5%	1%	-13	1.2%
CCOC(=O)[C@@H]1[C@H]2COc3cc(OC)ccc3[C@@H]2N2C(=O)N(c3cccc(Cl)c3)C(=O)[C@@]12C	2%	?	3.2	-12%	-18%	/	-0.7%
COc1cc(/C=N/NC(=O)c2cn(-c3cccc(C)n3)cn2)ccc1O	7%	-28	1.4	24%	1%	?	/
Cc1nn(-c2ccccc2)c(C)c1C(=O)OCC(=O)Nc1ccc2c(c1)OCO2	5%	-18	0.8	-21%	-18%	-14	-0.7%
